# Screening data from PubChem.
# Rango complex inh: qHTS Assay for Inhibitors of Rango (Ran-regulated importin-beta cargo) - Importin beta complex formation; Importin subunit beta-1 (Homo sapiens), Q14974; Rango CFP/YFP FRET sensor + importin beta, 45 min; Potency, µM (titrated, usually from 92.2 µM), without a hit: at the highest dose inhibition of complex formation; 0.031% of 340,000 active; active = rising FRET ratio curve, often small or poorly fitted; inconclusive = mostly compound fluorescence or quenching in the first reads; inactive = flat curves in all reads;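 also: potency is read from the fitted curve at half-maximal effect; 0% = DMSO wells and 100% = buffer wells lacking importin beta; nearly all actives have a fitted effect of over 15% in size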
# Target sequence (Q14974 whole entry, looked up): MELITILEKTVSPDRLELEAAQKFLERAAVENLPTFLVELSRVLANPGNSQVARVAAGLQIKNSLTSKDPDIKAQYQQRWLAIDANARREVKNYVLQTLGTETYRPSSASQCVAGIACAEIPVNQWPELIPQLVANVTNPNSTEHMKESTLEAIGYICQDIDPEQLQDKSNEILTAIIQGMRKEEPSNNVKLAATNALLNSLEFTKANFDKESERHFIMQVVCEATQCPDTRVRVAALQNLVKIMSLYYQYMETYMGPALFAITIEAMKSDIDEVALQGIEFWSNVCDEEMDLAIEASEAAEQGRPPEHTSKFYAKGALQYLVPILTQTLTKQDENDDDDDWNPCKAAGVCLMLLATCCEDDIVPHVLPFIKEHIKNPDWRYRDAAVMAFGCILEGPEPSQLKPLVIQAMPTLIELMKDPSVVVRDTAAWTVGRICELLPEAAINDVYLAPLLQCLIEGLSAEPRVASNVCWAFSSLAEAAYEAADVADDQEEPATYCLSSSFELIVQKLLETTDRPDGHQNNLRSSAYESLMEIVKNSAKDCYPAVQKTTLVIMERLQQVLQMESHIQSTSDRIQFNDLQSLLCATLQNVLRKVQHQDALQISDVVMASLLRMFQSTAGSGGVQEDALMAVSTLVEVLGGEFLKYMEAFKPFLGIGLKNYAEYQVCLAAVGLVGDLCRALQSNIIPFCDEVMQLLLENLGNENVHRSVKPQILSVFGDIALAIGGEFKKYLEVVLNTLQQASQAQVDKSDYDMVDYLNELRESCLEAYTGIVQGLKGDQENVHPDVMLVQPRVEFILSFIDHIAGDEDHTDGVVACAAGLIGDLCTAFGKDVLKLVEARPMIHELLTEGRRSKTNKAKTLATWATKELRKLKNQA
#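 Inhibition scored from the CFP 486 nm/YFP 530 nm FRET ratio 45 min after adding 0.125 microM importin beta to 50 nM Rango biosensor preincubated 5 min with compound (room temperature, PBS with DTT, Tween-20, BSA). No-importin wells as positive control.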
# miR-21 FLuc: qHTS Assay for Modulators of miRNAs and/orActivators of miR-21; Potency, µM (titrated, usually from 38.3 µM), for the others: at the highest dose reporter change, positive = more light; HeLa miR-21 FLuc reporter, luciferase, 48 h; AID 2288, 2010; 340,000 tested, under 10 active; active = well fitted rising curve with a large enough effect; inconclusive = small, poorly fitted or top-dose-only effect; inactive = no such curve, though single readings can be large or run the other way;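 also: % of control where 0% means no effect; miR-21 action dims this reporter so a rising signal means less miR-21 action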
#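 Compounds were titrated across several concentrations (up to approximately 40 uM) and incubated 48 hours with HeLa miR-21-FLuc reporter cells (miR-21 target sequence downstream of FLuc, endogenous miR-21). Readout was firefly luciferase luminescence after lytic detection reagent.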
# GLA inh pH 4.5: qHTS Assay for Inhibitors of Human alpha-Galactosidase at pH 4.5; Alpha-galactosidase A (Homo sapiens), P06280; purified enzyme, 4-MU-alpha-Gal fluorescence, pH 4.5; activity change, negative = inhibition, % at 105 µM; 230,000 tested, under 10 active; inconclusive = small, poorly fitted or top-dose-only inhibition, or a rising curve; inactive = flat fitted curve, though single readings scatter; no compound was filed as active;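 also: 0% = full activity with enzyme and -100% = basal without enzyme; dose as in the result columns while the protocol names 77 µM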
# Rango release inh: qHTS Assay for Inhibitors of RanGTP induced Rango (Ran-regulated importin-beta cargo) - Importin beta complex dissociation. Snurportin-1 (Homo sapiens) + GTP-binding nuclear protein Ran (Homo sapiens) + Importin …. Biochemical FRET Rango-importin beta, RanGTP-induced dissociation. Potency, µM (titrated, usually from 46.1 µM), for inactives: at the top dose activity change, negative = inhibition. 0.071% of 340,000 active; active means falling FRET ratio curve, often poorly fitted, with flat reads before Ran was added; inconclusive means other falling curves, or compound fluorescence or quenching; inactive means flat or rising ratio curve;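 also: potency is read from the fitted curve at half-maximal effect; % of control where 0% means no effect; nearly all actives have a fitted effect of over 45% in size; -100% = wells without RanGTP and RCC1; the record marks most hits as doubtful in a second field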
#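 Compounds preincubate 5 min with complex of recombinant Rango and importin beta in PBS with 1 mM DTT. Ran (0.6 uM) loaded with 2 mM GTP plus 0.2 uM RCC1 starts dissociation; FRET is recorded 45 min later.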
# * = called active by the depositor; ? = inconclusive; . = no result given.
SMILES,Rango complex inh,miR-21 FLuc,GLA inh pH 4.5,Rango release inh
CC(C(=O)Nc1ccc(F)c(F)c1F)N(C)CCOc1ccccc1 (stereo unspecified),2.8%,-7%,.,-2%
OC(CN1CCCCC1)CN1CCCCC1,0.1%,0%,2,-7%
Cc1ccccc1CNc1ccc(C(CC(N)=O)NC(=O)c2ccccc2)cc1[N+](=O)[O-] (stereo unspecified),-0.8%,0%,-9,4%
COc1ccc(CNC(=O)c2ccccc2SC)cc1,-1.5%,-9%,-8,-8%
COC(=O)C[C@H](NC(=O)Cn1cnc2c(SC)nc(N)nc21)C(=O)OC,0.9%,.,.,-3%
COc1ccccc1NC(=O)CN1C(=O)COc2ccc(S(=O)(=O)N3CCCCCC3)cc21,-3.1%,2%,.,8%
CCCC(=O)Nc1ccc(Cl)c(NC(=S)NC(=O)C(C)C)c1,0.2%,7%,-8,9%
O=C(c1ccc(Cl)c(S(=O)(=O)N2CCCCC2)c1)N1CCCCCC1,0.0%,-2%,.,-9%
Cc1cccc(C)c1NC(=O)CNC(=O)C(C)N1CCCCC1 (stereo unspecified),-5.3%,.,.,-3%
COc1ccc(/C=N/NC(=O)c2ccco2)cc1Cn1nc(C)cc1C,5.9%,-15%,-6,-10%
Cc1ccc(S(=O)(=O)NC(=O)NC(C)(C)C)cc1,2.3%,-6%,-2,6%
CC(C)(C)NC(=O)CN(C(=O)CCC(=O)Nc1nccs1)c1ccc2c(c1)OCCO2,-6.6%,-2%,.,-14%
COc1ccc(S(=O)(=O)N(C)c2ccc(C(=O)NCc3ccccn3)cc2)cc1OC,-0.3%,-10%,.,26%
CC(C)C(OC(=O)c1cccs1)C(=O)NCc1ccccc1 (stereo unspecified),0.7%,-23%,5,12%
CC1(C)CC(N=C2C([N+](=O)[O-])=CC=C3C2=NC2(CCCCC2)N3O)CC(C)(C)N1,4.2%,4%,-13,-25%
CCOc1ccc(NC(=S)NCc2ccc3[nH]c(C)cc3c2)cc1,0.1%,14%,5,8%
Cc1ccc2c(c1)SC1=NC(c3ccccc3)(C(F)(F)F)NC(=O)N12 (stereo unspecified),.,-14%,2,.
CSc1nnc(SCC2=NNC(=O)SC2)s1,7.7%,-4%,-1,9%
O=C(COC(=O)c1ccccc1S(=O)(=O)N1CCCCC1)NCC(F)(F)F,-7.8%,2%,3,-9%
O=C(CSc1ncnc2c1oc1ccccc12)Nc1ccc2c(c1)OCCO2,-0.9%,.,.,7%
O=C(NCc1cccnc1)c1ccccc1Br,-1.9%,-6%,0,-17%
CC(=O)NC(Cc1ccc(F)c(F)c1)C(=O)NC1CCN(C(=O)c2ccc(C)cc2)CC1 (stereo unspecified),-2.2%,-3%,3,7%
CCOC(=O)N1CCC(NC(=O)CSCc2nc(-c3ccc(OCC)cc3)oc2C)CC1,2.4%,2%,.,5%
Cc1ccc(NC(=O)c2cc(C)no2)cc1,-1.1%,-38%,.,0%

# Full records, quoted from the list. Screens in order: Rango complex inh	miR-21 FLuc	GLA inh pH 4.5	Rango release inh
# Profile of Cc1ccc(NC(=O)c2cc(C)no2)cc1 : -1.1%	-38%	.	0%
# Profile of CC(=O)NC(Cc1ccc(F)c(F)c1)C(=O)NC1CCN(C(=O)c2ccc(C)cc2)CC1 (stereo unspecified) : -2.2%	-3%	3	7%
# Profile of O=C(NCc1cccnc1)c1ccccc1Br : -1.9%	-6%	0	-17%
# Profile of O=C(COC(=O)c1ccccc1S(=O)(=O)N1CCCCC1)NCC(F)(F)F : -7.8%	2%	3	-9%
# Profile of CCOc1ccc(NC(=S)NCc2ccc3[nH]c(C)cc3c2)cc1 : 0.1%	14%	5	8%

# Further entries follow:
SMILES,Rango complex inh,miR-21 FLuc,GLA inh pH 4.5,Rango release inh
O=C(NCCNCCO)C1(C(F)(F)F)C/C(=C\Cc2ccccc2)CCCO1 (stereo unspecified),2.9%,.,.,-11%
CCc1ccccc1NS(=O)(=O)c1ccc2c(c1)C(C)(C)C(=O)N2C,2.0%,5%,.,2%
Cc1c(NC(=O)OCCNC(=O)Nc2ccccc2)sc(=S)n1C,0.3%,-10%,-8,10%
CC(C)(C)CC(=O)NCCc1csc(-c2ccccc2)n1,-0.5%,-14%,1,5%
COc1ccc(/C=C(\NC(=O)c2cccs2)C(=O)NN)cc1OC,-4.7%,-6%,.,-10%
O=C1CNC(=O)N1c1ccc(Cl)cc1,-3.5%,-5%,.,-8%
Cc1cccc(N(Cc2cc3ccccc3[nH]c2=O)C(=O)c2ccco2)c1C,-5.0%,0%,-2,-3%
Cn1c(CC(=O)NCCO)c(Sc2ccccc2)c2ccccc21,1.4%,-8%,-7,-3%
Cc1cc(NC(=O)CSc2nc3cc(Cl)ccc3o2)no1,-0.4%,-6%,.,7%
CCCS(=O)(=O)N1CCN(Cc2ccncc2)CC1,-0.9%,-2%,4,-1%
COc1ccc(/C=N/NC(=O)CNc2ccc(Br)cc2)c(C(=O)O)c1OC,-2.2%,-2%,-3,-2%
Cc1cccc(NS(=O)(=O)c2cc(C(=O)NCc3ccccn3)ccc2C)c1,-2.9%,-2%,.,13%
Cc1ccc(S(=O)(=O)NC(C(=O)N2CCOCCOCCOCCOCC2)C(C)C)cc1 (stereo unspecified),7.1%,-1%,.,0%
COc1ccccc1-c1nnc(SCC(=O)N2CCOCC2)o1,?,-38%,2,-21%
O=C(C1CCCCC1)N1CCC(n2nnc3ccccc32)CC1,-1.8%,-4%,-6,-3%
CCOc1ccc(C(CC(=O)O)NC(=O)C23CC4CC(CC(C4)C2)C3)cc1OC (stereo unspecified),5.3%,0%,3,-10%
CC(Sc1nccn1C)C(=O)Nc1ccc(C(N)=O)cc1 (stereo unspecified),0.3%,.,.,9%
COc1ccccc1CN1CCNC(=O)C1CC(=O)NCCCn1cccn1 (stereo unspecified),-2.3%,-3%,5,0%
CCc1ccc(NC(=O)[C@H](C)NC(=O)C2CCN(C(=O)[C@@H](N)CC(C)C)CC2)cc1,3.5%,-2%,.,7%
CCN(C[C@H]1N[C@@](C)(C(=O)OC)[C@H]2C(=O)N(Cc3ccccc3)C(=O)[C@@H]12)C(=O)Nc1ccccc1,-0.2%,.,.,8%
OCC1OC(n2cnc3c(NC4CCCCC4)ncnc32)C(O)C1O (stereo unspecified),0.8%,-50%,-1,2%
COCCN(C(=O)Nc1ccccc1)C(C)c1cccnc1 (stereo unspecified),-3.0%,-9%,6,1%
O=C(OCC(=O)N1CCCCC1)c1ccc(OC(F)(F)F)cc1,-3.2%,.,.,8%
O=C(c1cccc(C(F)(F)F)c1)N1CCN(c2cc(=O)[nH]nc2-c2ccccc2)CC1,?,-1%,-3,11%
CCOC(=O)COc1nc(C)cc(C(F)(F)F)c1C#N,?,2%,29,-15%
COc1ccc(C(=O)N/N=C/c2cccnc2)cc1,3.6%,-28%,.,-10%
CCC(=O)Nc1ccc(NC(=O)CSc2nc3c(c(=O)n(C)c(=O)n3C)n2CC)cc1,-2.3%,12%,.,-7%
COc1cccc(N2CCN(CC(=O)NCc3ccccc3)CC2)c1,0.1%,-2%,.,-22%
CCC(CC)NC(=O)C1CCN(c2ccc(S(=O)(=O)N3CCOCC3)cc2[N+](=O)[O-])CC1,-0.5%,.,.,-4%
COc1ccc(NC(=O)CC2C(=O)OCC3CCCCN32)cc1Cl (stereo unspecified),-0.8%,-2%,-1,7%
COc1ccc(C)c2sc(=NC(=O)c3ccc(C(C)=O)cc3)n(C)c12,2.4%,-48%,-17,-11%
CC(C)C(=O)NNC(=O)c1c(O)c2ccccc2[nH]c1=O,-4.8%,0%,7,-8%
Cc1ccc(NC(=O)/C(=C/c2ccncc2)NC(=O)c2ccccc2)cc1,-2.5%,-7%,2,44%
CCc1nc(C)cn1S(=O)(=O)c1cc(Br)c(C)cc1OC,2.9%,-2%,11,0%
O=C(CN1CCN(Cc2ccccc2)CC1)Nc1cccc(Cl)c1,0.9%,-3%,.,?
Cc1ccc(N2CC(C(=O)OCc3ccccc3)CC2=O)cc1 (stereo unspecified),-2.9%,0%,-2,1%
CCN(C[C@H]1N[C@@](Cc2ccccc2)(C(=O)OC)[C@H]2C(=O)N(Cc3ccccc3)C(=O)[C@@H]12)S(=O)(=O)c1ccc(OC(F)(F)F)cc1,1.6%,.,.,0%
CCn1cc(-c2nnnn2-c2ccc(Cl)cc2)c(=O)c2ccccc21,1.1%,0%,13,-5%
O=c1oc2ccccc2c(N2CCCCC2)c1CN1CCCC1,0.6%,-7%,-7,1%
O=C1CSC(=S)N1/N=C/c1ccc(O)c([N+](=O)[O-])c1,2.7%,-2%,-6,18%
CCN(CC)CCN1C(=O)C(=O)/C(=C(/O)c2ccc(F)cc2)C1c1ccncc1 (stereo unspecified),-2.6%,-1%,-3,-3%
CC(NC(=O)C1CCCN(S(=O)(=O)c2cccs2)C1)c1ccccc1 (stereo unspecified),-2.3%,-1%,3,9%
CCOC(=O)COc1cccc2c(=O)n(CC(=O)N3CCC(C)CC3)ccc12,0.5%,-2%,0,9%
O=c1cc(C(F)(F)F)[nH]c2ccc(C(F)(F)F)cc12,1.7%,29%,0,3%
COc1ccc(/[N+]([O-])=C/c2ccoc2)cc1,0.3%,.,.,-14%
CC1C(=O)N2CCCc3cc(S(=O)(=O)N(C)CCC#N)cc1c32 (stereo unspecified),0.0%,-4%,.,-6%
COc1ccc(-c2cc3c(=O)n(CC(=O)N4CCCCC4)ncn3n2)cc1,?,-10%,.,?
COc1cc(-c2noc(CCCC(=O)Nc3cccnc3)n2)cc(OC)c1OC,-4.2%,0%,-1,-15%
Cc1nn(-c2ccccc2)c(NC(=O)C(C)C)c(-c2ccccc2)c1=O,1.8%,0%,-2,1%
O=C(Nc1ccc(S(=O)(=O)Nc2ncccn2)cc1)c1ccc(Br)s1,-1.0%,-7%,3,0%
CC(=O)O[C@@]1(C)C[C@@H](O)[C@]2(O)C=CO[C@@H](O[C@@H]3O[C@H](CO)[C@@H](O)[C@H](O)[C@H]3O)[C@@H]21,-2.6%,.,.,-2%
COc1cc(/C=C(\C(=O)O)c2ccc(S(=O)(=O)N3CCCC3)s2)ccc1OCCC(C)C,-15%,.,.,-15%
Cc1ccccc1NC(=O)C1C2C=CC(C3CC23)C1C(=O)O (stereo unspecified),0.6%,0%,-6,2%
COc1ccc(Nc2ccc(S(=O)(=O)N3CCCCC3)cc2[N+](=O)[O-])cc1Cl,6.8%,-4%,-3,27%
Cc1ccc(C(=O)COC(=O)CNC(=O)c2ccc(Br)o2)cc1[N+](=O)[O-],0.0%,-3%,3,1%
Cc1cc(C=C2C(=O)CCCC2=O)c(C)n1-c1ccccc1,?,-9%,2,11%
CCCCNC(=O)CSc1nc2ccsc2c(=O)n1CCCC(=O)NCCc1ccc(S(N)(=O)=O)cc1,-3.9%,0%,4,-16%
CCOc1ccc(CCNC(=O)c2ccc(CS(=O)Cc3ccccc3Cl)o2)cc1 (stereo unspecified),-2.3%,12%,.,-4%
COc1ccc(CN2CCN(CCCc3ccccc3)C(CCO)C2)cc1OC (stereo unspecified),0.1%,1%,.,1%
COc1cc([N+](=O)[O-])cc2sc(NC(C)=O)nc12,-1.0%,-4%,0,-1%

# Carrying on.
SMILES,Rango complex inh,miR-21 FLuc,GLA inh pH 4.5,Rango release inh
CC1Nc2ncnc(N3CCN(c4ccccc4)CC3)c2N(Cc2ccc(Cl)cc2)C1=O (stereo unspecified),-4.5%,.,.,-10%
COC(=O)C1=CNC=C(C(=O)OC)C1c1ccc(C(=O)OC)cc1,?,-7%,?,?
N#CCCN1CCN(S(=O)(=O)c2ccc(S(=O)(=O)N3CCCCCC3)cc2)CC1,0.1%,-3%,6,2%
COC(=O)c1ccc(Oc2nc(SC)nc(N(C)C)n2)cc1,1.5%,-9%,-8,?

# Only miR-21 FLuc (2 entries from above):
canonical_smiles,miR-21 FLuc
COC(=O)c1ccc(Oc2nc(SC)nc(N(C)C)n2)cc1,-9%
N#CCCN1CCN(S(=O)(=O)c2ccc(S(=O)(=O)N3CCCCCC3)cc2)CC1,-3%

# An excerpt; count on the stated rates, not on these rows.
